Bioassay records (PubChem BioAssay)
Tg IFNy HTS – T. gondii growth inhibition under IFN-gamma; Toxoplasma gondii growth in IFN-gamma-treated host cells; stronger effect = lower value; reference of the scale not given here; activity change, negative = inhibition, %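 (about 20 µM by stock and volumes)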; 69,000 tested, 3.8% active;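 active = below -70%; inconclusive = fit judged invalid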;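 also: host cells are HeLa cells infected with Toxoplasma gondii; parasite growth read as luciferase light; one replicate is shown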
* marks the source's active call; other numbers are inactive results; i = inactive; ? = inconclusive; & = joins results of further samples. These rows are one share of the data. The share of hits here may be higher or lower than overall.

SMILES | Tg IFNy HTS
Cn1nc(CN2CCCCC2)c2c1CN(S(=O)(=O)c1cccc(F)c1)C2 | 2
CC(=O)Nc1ccc(C(=O)N(Cc2cccnc2)C2(C(=O)NCc3ccccc3)CCN(C(C)=O)CC2)cc1 | 147
O=C(O)CN1C[C@H]2CN(Cc3cccc(F)c3)C(=O)[C@H]2C1 | -20
C[C@@H]1CN([C@@H](C)CO)C(=O)CCCn2cc(nn2)CO[C@@H]1CN(C)C(=O)Nc1cccc2ccccc12 | i
CCS(=O)(=O)Nc1ccc(C2=NN(S(C)(=O)=O)C(c3cccs3)C2)cc1 (stereo not drawn) | 5
Nc1cc(=O)[nH]c(=O)n1Cc1ccco1 | -46
O=C(Nc1ccc(F)cc1F)c1cccc(CN2CCNC(=O)C2CCO)c1 (stereo not drawn) | 333
CCOC(=O)Cn1c(-c2cccs2)nc(-c2ccccc2)c1-c1ccccc1 | -51
CCOC(=O)N1CCc2[nH]c3ccc(C)cc3c2C1 | 3
C[C@@H]1CN([C@@H](C)CO)C(=O)c2cc(C3=CCCCC3)cnc2O[C@@H]1CN(C)S(=O)(=O)c1cn(C)cn1 | -60
Cc1ccc(-c2nc(CN(C)S(=O)(=O)c3ccc(C)cc3)c(C)o2)cc1 | -9
COc1ccc(NC(=O)N2C[C@H](O)COC[C@@H]3O[C@H](CC(=O)NCc4ccncn4)CC[C@H]32)cc1 | -3
Cc1cccc(CNC2=NCCNC23CCN(S(=O)(=O)c2cc(C)c(C)cc2C)CC3)c1 | -68
COc1cc(C2Nc3ccccc3S2)cc(OC)c1OC (stereo not drawn) | -27
CCCc1nc(C)cc(-c2ccccc2CO)n1 | 1
CNC(=O)[C@@H]1C[C@@H](N)CN1C(=O)c1cc(C)c(C)s1 | 58
Cc1nc2c(C)cccc2cc1C(=O)N1CCC(c2cc(CC(=O)O)[nH]n2)CC1 | -20
COc1ccc(-c2nc(Cn3cnc4nc5c(cc4c3=O)CCCC5)c(C)o2)c(OC)c1 | 43
COc1ccccc1Cc1nnc(NC(=O)CCc2c(C)nn3cnnc3c2C)s1 | -14
O=C(NCCCn1ccnc1)C1CCCN(S(=O)(=O)c2ccc(F)cc2)C1 (stereo not drawn) | 18
Cc1ccc(-c2nnn(CC(=O)N(CC(=O)NCCC(C)C)c3ccccc3F)n2)cc1 | -11
CCCC(CCC)n1[nH]c(=O)c2c(C)cc(=O)[nH]c21 | -9
COC(=O)c1cc2n(n1)CCCN(c1cncc(C(=O)N3CCCCC3)n1)C2 | -4
C[C@@H]1CN([C@H](C)CO)C(=O)c2cc(NC(=O)Nc3cccc4ccccc34)ccc2O[C@@H]1CN(C)S(=O)(=O)c1cccs1 | 29
CCC(CC)n1nc(C)cc1NC(=O)c1cnc(-c2cccnc2)nc1 | -5
CC(=O)N1CCC2(CC1)OC(=O)C(C)=C2C(=O)NCCN1CCCCCC1 | -3
O=C(CC1Nc2c3ccccc3nc(=S)n2C1=O)NCc1ccccc1 (stereo not drawn) | -1
CC(=O)Nc1ccc(-c2c(-c3ccccc3)ncn2Cc2ccccn2)cc1 | 45
Cc1ccncc1C(=O)N(Cc1ccc(F)cc1)CC1CCCO1 (stereo not drawn) | -7
C=CCSc1nc(C)cc(C(=O)OCC)c1C#N | -28
Cc1ccc(S(=O)(=O)N2CC[C@@H]3[C@@H](CO)N(C)c4ccc(-c5ccccc5F)cc4[C@@H]32)cc1 | -41
COc1cc(NC(=O)Cn2c(=O)ccc3cc(S(=O)(=O)N4CCC(C)CC4)ccc32)cc(OC)c1 | 115
C[C@H](NC[C@H](O)CP(=O)(O)Cc1ccccc1)c1ccc(Cl)c(Cl)c1 | 16&15
CO[C@H]1CN(C)C(=O)c2cc(NC(=O)c3nc4ccccc4s3)ccc2OC[C@@H](C)NC[C@@H]1C | -69
O=C(CC1CC1)N1CC2(C1)[C@H](c1ccccc1)[C@@H](CO)N2Cc1ccccn1 | 32
COc1ccc([C@@H]2C/C=C\C[C@H](c3ccc(F)cc3)NC(=O)CCC(=O)N2)c(OC)c1 | -3
CS(=O)(=O)N1CCO[C@@H]2CN(C(=O)Cc3ccccn3)CC[C@H]2C1 | -39
COCCN1CCc2c(COCCN3CCCC3)cncc2C1 | -37
CC(C)c1ccc(NC(=O)Cn2ncc3c(N4CCN(c5ccccn5)CC4)ncnc32)cc1 | -43
Cc1cnc(N2CCc3ncnc(-c4cnn(C)c4)c3CC2)nc1 | -3

A stretch of the results above:
SMILES | Tg IFNy HTS
O=C(CC1Nc2c3ccccc3nc(=S)n2C1=O)NCc1ccccc1 (stereo not drawn) | -1
CC(=O)Nc1ccc(-c2c(-c3ccccc3)ncn2Cc2ccccn2)cc1 | 45
Cc1ccncc1C(=O)N(Cc1ccc(F)cc1)CC1CCCO1 (stereo not drawn) | -7
C=CCSc1nc(C)cc(C(=O)OCC)c1C#N | -28
Cc1ccc(S(=O)(=O)N2CC[C@@H]3[C@@H](CO)N(C)c4ccc(-c5ccccc5F)cc4[C@@H]32)cc1 | -41
COc1cc(NC(=O)Cn2c(=O)ccc3cc(S(=O)(=O)N4CCC(C)CC4)ccc32)cc(OC)c1 | 115
C[C@H](NC[C@H](O)CP(=O)(O)Cc1ccccc1)c1ccc(Cl)c(Cl)c1 | 16&15
CO[C@H]1CN(C)C(=O)c2cc(NC(=O)c3nc4ccccc4s3)ccc2OC[C@@H](C)NC[C@@H]1C | -69
O=C(CC1CC1)N1CC2(C1)[C@H](c1ccccc1)[C@@H](CO)N2Cc1ccccn1 | 32
COc1ccc([C@@H]2C/C=C\C[C@H](c3ccc(F)cc3)NC(=O)CCC(=O)N2)c(OC)c1 | -3
CS(=O)(=O)N1CCO[C@@H]2CN(C(=O)Cc3ccccn3)CC[C@H]2C1 | -39
COCCN1CCc2c(COCCN3CCCC3)cncc2C1 | -37
CC(C)c1ccc(NC(=O)Cn2ncc3c(N4CCN(c5ccccn5)CC4)ncnc32)cc1 | -43
Cc1cnc(N2CCc3ncnc(-c4cnn(C)c4)c3CC2)nc1 | -3

(continued)
SMILES | Tg IFNy HTS
COCCN1C(=O)CCc2cc(NS(=O)(=O)c3ccc(CC(C)C)cc3)ccc21 | -79*
COCc1cc(CNC(=O)[C@@]23CC[C@@](C)(OC2=O)C3(C)C)[nH]n1 | -13
COc1cccc(CNC(=O)C[C@H]2CC[C@@H]3[C@@H](COc4ccc(NC(=O)c5cccs5)cc4C(=O)N3C)O2)c1 | -47
CC(C)C(=O)N1CC2CCC1C2Oc1ccccn1 (stereo not drawn) | 5
OCc1cc(-c2nc3ccccc3s2)ccc1F | 479
Cn1nc(-c2cccc(F)c2)c2c1C[C@H]1CN(C(=O)C3(C)CC3)C[C@H]21 | 1
Cc1cnc2c(C(=O)NCCc3nccc(-c4ccccc4)n3)cnn2c1 | -13
Cc1cc(-c2nc(-c3ccnn3S(=O)(=O)c3cccc(C(F)(F)F)c3)cs2)no1 | -44
CC(C)CC(=O)N1CCC2(CC1)CC(CC(=O)NCC1CC1)c1ccccc12 (stereo not drawn) | -11
O=C(NCc1ccccc1-n1cncn1)c1n[nH]c2c1CCC2 | 1
C=CCOC1C2CCC1N(C(=O)CS(C)(=O)=O)CCO2 (stereo not drawn) | 130
CC1=CC(=O)C2C(C)(C)CCC[C@]2(C)[C@@]1(O)CCc1ccoc1 (stereo partly drawn) | -13
O=C1CCCN1C1CCN(c2ccc(Cn3ccnc3)cn2)CC1 | -3
COc1ccc(Oc2cccc(CN3CCNC(C(=O)NC4CC4)C3)c2)cc1 (stereo not drawn) | -6
Cc1ccc(S(=O)(=O)Nc2ccc3c(c2)C(=O)N([C@H](C)CO)C[C@@H](C)[C@H](CN(C)S(=O)(=O)c2cccs2)OCCCC[C@H](C)O3)cc1 | -131*
CCS(=O)(=O)N1CCC2(Cc3ccccc3NC2=O)C1 (stereo not drawn) | 42
Cc1nc(C(C)N(C)C(=O)NCc2cccc(F)c2)c(C)s1 (stereo not drawn) | -1
COc1cc(-c2ncc[nH]2)ccc1OCC(N)=O | 3
O=C(NCC1=CCCCC1)c1ccccc1-c1ncc[nH]1 | -2
CN(C)C(=O)CN1CCC2(CC1)CN(C(=O)c1cccn1C)Cc1ccccc12 | 6
Cc1ccc(CNCC2(O)CCCN(CCc3ccccc3)C2=O)o1 (stereo not drawn) | -3
C=CCO[C@@H]1CN(S(=O)(=O)c2cccnc2)[C@H]2CCCO[C@@H]12 | -2
CC=Cc1ccc2n(c1=O)C[C@H]1[C@H](CO)[C@@H](C(=O)Nc3ccc(-c4ccccc4)cc3)[C@@H]2N1C(=O)CC (mixture of isomers) | -42
COC(=O)c1cccc(OCc2cc3c(cc2Br)OCO3)c1 | -59
CCn1cc(Cn2ccnc2-c2ccc(Oc3ncccn3)cc2)cn1 | 3
Cc1ccc(NC(=O)C(=O)NCCc2csc(-c3ccc(Cl)cc3)n2)cc1C | -61
CC(C)C(=O)NCc1csc(C2CCCN(C(=O)/C=C/c3ccccc3)C2)n1 (stereo not drawn) | 5
Cc1cccc(-c2ccc(C3[C@@H]4CN(C(=O)c5ccncc5)C[C@H]3N4)cc2)c1 (stereo partly drawn) | -7&8
C[C@H](CO)N1C[C@H](C)[C@H](CN(C)C(=O)C2CCOCC2)Oc2ncc(-c3cccc(C#N)c3)cc2C1=O | -49
Cc1nc(-c2cn(CCN)nn2)n(-c2cc(Cl)ccc2Cl)n1 | 6
O=C(Nc1ccc(Cl)cc1)c1nc2nc(-c3cccs3)cc(C(F)(F)F)n2n1 | 19
Cc1ccc2c(c1)cc(S(=O)(=O)c1ccccc1)c(=O)n2CC(=O)N1CCCC1 | -7
Cn1nc(C(F)(F)F)cc1C1CCCCCN1C(=O)c1ccccc1F (stereo not drawn) | -17
C=CCN1CCC2(CC1)CC(Nc1cc(OC)ncn1)c1ccccc1O2 (stereo not drawn) | 6
C[C@H]1CN([C@@H](C)CO)C(=O)c2cc(C3=CCCC3)cnc2O[C@@H]1CN(C)C(=O)Nc1ccc(C(F)(F)F)cc1 | -47
O=C(CC1[C@H]2CN(Cc3ccco3)C[C@@H]12)NCc1ccco1 (stereo partly drawn) | 5
C[C@H](CO)N1C[C@H](C)[C@@H](CN(C)Cc2ccc3c(c2)OCO3)Oc2ccc(NS(=O)(=O)c3cn(C)cn3)cc2CC1=O | -19
CC(C)NC(=O)N1CCc2cc(C(=O)NCC3CC3)c(NCC3CC3)nc2CC1 | 50
CC(C)CN1C[C@@H]2CN(S(=O)(=O)Cc3ccccc3)C[C@H]2C1=O | -7
COc1ccc2c3c(n(C)c2c1)[C@@H](CO)N(C(=O)CN1CCOCC1)CC31CCN(Cc2ccncc2)CC1 | -13
COCCN1CCN(Cc2nccn2C)Cc2ccc(C)nc21 | -14
O=C(COc1ccc(Cl)cc1)NCCc1csc(-c2ccc(C(F)(F)F)cc2)n1 | i
Cn1cc(C2COC3(CCN(Cc4cccnc4)CC3)C2)cn1 (stereo not drawn) | 42
O=C(c1ccccc1F)N1CCN(S(=O)(=O)c2cc3c4c(c2)CCN4C(=O)CC3)CC1 | 12
Cc1nc(C)c2c(n1)CCN(CC1CCOC1)CC2 (stereo not drawn) | 251
CN(C)C(=O)N1CCC(c2nnc3ccc(C(=O)Cc4ccccn4)cn23)C1 (stereo not drawn) | -23
CCOC(=O)c1c(C)csc1NS(=O)(=O)c1ccc(C)cc1 | -5
C=CCO[C@H]1CN(Cc2cccc(C#N)c2)[C@H]2COC[C@@H]12 | -33
COc1cccc(C(=O)NCCc2csc(-c3ccc(Cl)cc3)n2)c1OC | 12
Cc1nccc(-c2cccc(-n3ccnc3-c3ccco3)c2)n1 | -4
Other compounds
SMILES | Tg IFNy HTS
CCN1CC(C(=O)N2CCCC(COc3ccc(F)cc3)C2)CC1=O (stereo not drawn) | 7
CN(Cc1ccc(CN(C)S(C)(=O)=O)o1)Cc1cccc2ncccc12 | 1
COc1ccc(-n2nnc3c(N4CCN(C(=O)C(=O)c5c[nH]c6ccccc56)CC4)ncnc32)cc1 | 5
Cc1ccc(-n2c(SCC(=O)O)nnc2C2CCNCC2)cc1 | -1
COCCN1C(=O)CCc2cc(NC(=O)c3ccco3)ccc21 | 57
CC1=C(C(=O)NC2CCC(C)CC2)C2(CCN(S(=O)(=O)c3cccs3)CC2)OC1=O (stereo not drawn) | 42
Cc1ccc(Nc2nc(C(=O)NCCC3=CCCCC3)nc3ccccc23)cc1 | -47
CCNC(=O)c1nc(Nc2ccccc2)c2ccccc2n1 | -27
O=C(CC1Nc2c3ccccc3nc(=S)n2C1=O)NCc1cccs1 (stereo not drawn) | -36
CN(C)c1ncc(CN2CCC(O)(c3ccccc3F)CC2)cn1 | -18
O=S(=O)(Cc1ccccc1)N1CCC(c2nc(-c3ccccc3Cl)no2)CC1 | 4
CO[C@@H]1CC[C@@H]2[C@@H]1OCCN2C(=O)c1cn2cc(Cl)ccc2n1 | -9
C/C=C/c1cnc2c(c1)C(=O)N([C@@H](C)CO)C[C@H](C)[C@@H](CN(C)CC1CCOCC1)O2 | ?
Cc1sc2nc(C3CCCN(C(=O)c4ccccc4F)C3)[nH]c(=O)c2c1C (stereo not drawn) | 101
O=C(CCc1ccccc1)N1N=C(C(F)(F)F)CC1(O)c1ccc(Cl)cc1 (stereo not drawn) | 0
CSc1cc(-c2nccs2)nn1C(C)=O | 1
Cc1ccc(CN2C[C@@H]3c4nc(N5CCCC(C)C5)ncc4CS(=O)(=O)[C@H]3C2)cc1 (stereo partly drawn) | 170
CCCN(Cc1cccc(Cl)c1)C(=O)CCSC | -29
COc1ccc(S(=O)(=O)NCCc2sc(-c3cccc(F)c3)nc2C)cc1C | 29
CCOc1ccccc1NC(=O)CN1CCC2(CC1)N=C(c1ccc(F)cc1)C(=O)N2 | 35
CCCSc1ncc(CN2CCN(c3nccc4occc34)CC2)cn1 | 84
COCCNC(=O)c1ccc2c(c1)N(C)C(CC(=O)N1CC=CCC1)CO2 (stereo not drawn) | 5
CC(c1nnc(SCC(=O)O)n1-c1cccnc1)n1cccn1 (stereo not drawn) | 6
O=C(c1ccccc1)N1CCc2c([nH]c3ccccc23)C1c1ccc(F)cc1 (stereo not drawn) | -85*
